N370S GC = N370S glucocerebrosidase modulation, Gaucher chaperone candidate; P04062; N370S GC spleen homogenate, 4MU-glucoside fluorescence; Potency, µM (doses to about 59.4 µM), without a hit: top-dose activity change, negative = inhibition, most hits filed as inhibitors; 330,000 compounds, 0.092% hits; active = well fitted inhibition curve with a large enough effect; inconclusive = small, poorly fitted or top-dose-only effect, or effect the other way, or another doubt; inactive = no such curve, though single readings can be large or run the other way;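 note: 0% = full enzyme activity and -100% = no enzyme basal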
* = called active by the depositor; ? = inconclusive; & = joins results of further samples; [ ] = remark or other dose. Potency is the fitted concentration of half-maximal effect.

N370S GC	canonical_smiles
-18%	CCCN1CCN(C(=O)C2CCCN(c3ncnc4c3nc3n4CCCCC3)C2)CC1 (stereo not given)
9%	CCn1c(Cc2ccccc2)nnc1SCC(=O)Nc1ccc2c(c1)OCO2
12%	CCN1CCN(c2cc(=O)n(-c3cc(Cl)ccc3C)c(=O)[nH]2)CC1
0%	COc1ccc(COn2c(=O)c(C)[n+]([O-])c3ccccc32)cc1OC
-1%	CCn1c(SCC(=O)Nc2nc(C)c(C)s2)nnc1-c1ccco1
-24%	OC(CN1C2=NCCN2c2ccccc21)c1ccccc1 (stereo not given)
0%	CCOC(=O)C(=O)NCC(c1ccco1)S(=O)(=O)c1cccs1 (stereo not given)
2%	CN(C)c1ccc(-c2nnn(CC(=O)NCc3ccc4c(c3)OCO4)n2)cc1
?	CC(C)n1cc(CN2CCCC(C(=O)Nc3cccc(-c4cc5ccccc5[nH]4)c3)C2)cn1 (stereo not given)
-2%	COc1ccccc1NCc1cc(=O)oc2c(C)c(O)ccc12
9%	COc1ccc(NC(=O)Nc2cc(C)ccc2OC(F)F)c(OC)c1
5%	COC(=O)C1=C(C)NC2=C(C(=O)CCC2)C1c1ccc(-c2ccsc2C(=O)OC)o1 (stereo not given)
-11%	NCCCC[C@H]1CNC(=O)C(=O)N1CCc1cccc2ccccc12
-13%	CCC(O)(CC)C(=O)NN(C(=O)CCl)c1ccccc1
6%	COc1ccnc(Oc2ccc(F)cc2)c1C(=O)N/C=N/OCc1ccccc1
-10%	CCc1ccc(N2CC(C(=O)NC3CCCCC3C)CC2=O)cc1 (stereo not given)
4%	O=C(c1cncc(Br)c1)N1CCN(S(=O)(=O)c2ccccc2C(F)(F)F)CC1
-15%	O=C1OC(CN2CCOCC2)CN1N=Cc1ccc([N+](=O)[O-])o1 (stereo not given)
-7%	COc1ccc(S(=O)(=O)N2CCOCC2)cc1NC(=O)Cn1nnc2ccccc2c1=O
-9%	CCNC(=S)N1CCC(Cc2ccccc2)CC1
-17%	O=C(NCC(c1ccco1)N1CCCCC1)c1cccc(S(=O)(=O)Nc2ccccc2Cl)c1 (stereo not given)
6%	O=C(Nc1ncnc2c1ncn2C1OC(COC(=O)c2ccccc2)C(F)C1O)c1ccccc1 (stereo not given)
2%	COc1cccc(CN2C(=O)c3cccc(N)c3C2=O)c1
9%	CCCc1cc(=O)[nH]c(SCc2cccnc2)n1
-7%	Cc1ncc([N+](=O)[O-])n1CC(=O)NC1CCCC1
4%	CCc1ccc(NC(=O)CCc2nc3ccccc3[nH]2)cc1
2%	O=C(CSc1ccc2nnc(-c3ccccn3)n2n1)NCc1ccc2c(c1)OCO2
-7%	CCOC(=O)C1CCN(S(=O)(=O)c2c(C(=O)N3CCCCC3)c(C)n(C)c2C)CC1
3%	Cc1ccc(-c2nnc(SCC(C)C)n2C)cc1
-2%	COc1ccc(C(=O)CSc2nnc(-c3cc(C)cc(C)c3)o2)cc1

Additional compounds follow.
N370S GC	canonical_smiles
-3%	COc1ccccc1OCCNC(=O)c1cccc(S(=O)(=O)N2CCN(C)CC2)c1
5%	COc1ccc(NC(=O)CSC2=NCCN2)cc1
18%	Cc1ccc(C(=O)OCC(=O)Nc2ccc(N(C)C)cc2)cc1NC(=O)c1ccco1
6%	CC(C)C1N(C(N)=S)N=CC1(C)C (stereo not given)
-12%	CCOC(=O)C(=O)N(Nc1ccccc1C)c1ccccc1C
26%[2.35 µM]	CCOC(=O)c1c(C)[nH]c(C(=O)CSc2nnc(CC(C)c3ccccc3)o2)c1C (stereo not given)
22%	CS(=O)(=O)N(CC(=O)Nc1ccccc1-c1ccccc1)c1ccccc1
-2%	COc1ccc(C2=NS(=O)(=O)N(C)C(C(=O)N(C)Cc3ccccc3)=C2)cc1OC
2%	O=C(CSc1nnc(-c2ccncc2)o1)c1cccc([N+](=O)[O-])c1
6%	COC(=O)[C@H](Cc1ccccc1)NC(=O)[C@@H](N)CC(=O)O
6%	O=C(Nc1nnc(C2COc3ccccc3O2)o1)c1ccc(F)cc1 (stereo not given)
9%	Cc1ncsc1CCOC(=O)c1ccc([N+](=O)[O-])cc1
1%	O=C1CC(N2CCN(c3nc4ccccc4s3)CC2)C(=O)N1c1cccc(F)c1 (stereo not given)
9%	CCCC1C2C(=O)N(c3ccccc3OCC)C(=O)C2ON1c1ccccc1 (stereo not given)
-15%	O=C(c1ccc(N2CCNCC2)cc1)c1cccnc1
-22%	CS(=O)(=O)N1CCN(c2c(Cl)cccc2[N+](=O)[O-])CC1
-2%	Cc1c(CC(Cl)(Cl)Cl)c2c(n1O)CC(C)(C)CC2=O
-3%	OC(Cn1cncn1)(Cn1cncn1)c1ccc(F)cc1F
26%	CCOC(=O)CSc1nnc(Cn2c(=O)sc3ccccc32)n1-c1ccccc1C
4%	Cc1c(Cl)cccc1N(CC(=O)N1CCCCCC1)S(C)(=O)=O
-3%	CC(C)c1c(O)nc(SCCN(C)C)[nH]c1=O
-6%	CCN(CC)CCCNC(=O)C(C)Sc1nc(-c2ccccc2)cc(C(F)(F)F)n1 (stereo not given)
-5%	COc1cccc(NC(=S)NNC(=O)CCn2cc([N+](=O)[O-])cn2)c1
12%	CCn1c(C(=O)Nc2ccsc2C(=O)OC)cc2sc(Cl)cc21
1%	O=C(Nc1nnc(-c2ccncc2)o1)c1cccc(N2C(=O)CCC2=O)c1
0%	NC(=O)c1ccccc1NC(=O)C1CCCO1 (stereo not given)
4%	CC(C)NC(=O)c1ccc(Cl)cc1Cl
-14%[2.35 µM]	COC(=O)c1ccccc1NC(=O)COC(C)=O
28%	c1ccc2c(c1)Cn1nc(Cc3nc4c(s3)CCCC4)nc1-2
3%	Cc1cccc(-c2nc(CS(=O)CC(=O)NC3CCCC3)c(C)o2)c1 (stereo not given)

Random excerpt: 3 compounds from above.
N370S GC	canonical_smiles
-2%	Cc1c(CC(Cl)(Cl)Cl)c2c(n1O)CC(C)(C)CC2=O
-15%	O=C(c1ccc(N2CCNCC2)cc1)c1cccnc1
28%	c1ccc2c(c1)Cn1nc(Cc3nc4c(s3)CCCC4)nc1-2

Carrying on.
N370S GC	canonical_smiles
-25%	CN1CCN(NC(=O)/C=C/c2ccc(C(C)(C)C)cc2)CC1
-7%	O=C1c2ccccc2C(=O)N1CCc1nc(-c2ccncc2)no1
0%	Cc1nnc(NC(=O)CSc2n[nH]c(-c3ccccc3C)n2)s1
-2%	O=C(CSc1ccc(-c2cccs2)nn1)NCCc1ccccc1
0%	O=C(CNC(=O)c1cccs1)Nc1ncccc1O
-23%	COc1ccc(CN(C(=O)c2ccccc2OC)C2CCS(=O)(=O)C2)cc1 (stereo not given)
13%	COc1ccc(CCNC(=O)c2nn(C)c3c2CS(=O)(=O)c2ccccc2-3)c(OC)c1
2%	O=C(NC1CC1)c1ccc(-c2nc3ccccc3s2)s1
1%	COc1ccc(CNC(=O)CCc2nc3cc(S(=O)(=O)N(C)C)ccc3n2C)cc1OC
23%	COCC(C)n1c(SCC(=O)c2cc(C)n(C)c2C)nc2ccccc2c1=O (stereo not given)
13%	CC(=O)O[C@@]1(C(C)=O)CCC2C3C=C(Cl)C4=CC(=O)CC[C@]4(C)C3CC[C@]21C (stereo not given in full)
25%	Cc1ccc(S(=O)(=O)NCC(=O)OCC(=O)N(Cc2ccccc2)C(C)(C)C)cc1
0%	O=C(COC(=O)c1ccc(O)cc1)Nc1ccc2[nH]c(=O)[nH]c2c1
6%	CC(C)COP(=O)(OCC(C)C)C(O)c1ccc2c(c1)OCO2 (stereo not given)
1%	CCOc1ccccc1N(C)S(=O)(=O)c1ccc2c(c1)N(C(C)=O)CCO2
12%	CSc1ccccc1C(=O)C1CCCN(C(=O)CCc2cccnc2)C1 (stereo not given)
0%	CN(C)S(=O)(=O)c1ccc(N2CCCC2)c(C(=O)NNC(=O)COc2ccc(Cl)cc2)c1
8%	CCc1nn2cc(C(=O)c3ccccc3O)cnc2c1-c1ccc(F)cc1
-2%	O=c1c2ccccc2[nH]c(=S)n1CCC1=CCCCC1
-4%	COc1cc(CNS(=O)(=O)c2ccc3c(c2)CC(C)N3C(=O)C2CCC2)cc(OC)c1OC (stereo not given)
-4%	Cc1ccc(C(=O)NCCCNC(=O)c2ccco2)cn1
0%	CCOC(=O)Cn1c(=O)c2c(nc3n2CC(C)CN3Cc2ccccc2)n(C)c1=O (stereo not given)
1%	Cc1cc(Br)ccc1NC(=O)c1ccc(-n2cncn2)c([N+](=O)[O-])c1
-12%	CCN(CC(=O)NCCCN1CCOCC1)S(=O)(=O)c1cc(Cl)ccc1Cl
-4%	O=C(CSc1nc(O)cc(=O)[nH]1)N1CCCc2ccccc21
0%	Cc1ccc(N2CSC3=C(C#N)C(c4cccs4)CC(=O)N3C2)cc1 (stereo not given)
-2%	Cn1cc([N+](=O)[O-])c(C(=O)NC2CCCCCC2)n1
9%	CN(C)CCCO/N=C(\c1ccccc1)c1ccncc1
6%	CC(C)CC(=O)Nc1nnn(C)n1
4%	CCC(=O)NCCCOc1ccccc1

Following part
N370S GC	canonical_smiles
0%	COc1ccc(OC)c(S(=O)(=O)Nc2ccc3[nH]c(=O)[nH]c3c2)c1
1%	CC(C)NC[C@@H](O)COc1cccc2ccccc12
4%	CC1CCCC/C1=N/Nc1ccc([N+](=O)[O-])cc1[N+](=O)[O-] (stereo not given)
-24%	Cc1ccc(NC(=O)C2CCN(S(=O)(=O)c3ccc4c(c3)NC(=O)CO4)CC2)cc1C
-2%	CCC(OC(=O)CN1C(=O)C(=O)c2ccccc21)C(=O)Nc1ccccc1OC (stereo not given)
-9%	COc1ccc(CC(=O)N2CCCC(C)C2)cc1 (stereo not given)
-6%	COc1ccc(C(=O)NC(NC(=S)Nc2ccc(S(N)(=O)=O)cc2)C(Cl)(Cl)Cl)cc1 (stereo not given)
8%	CCOC(=O)C1CCN(C(=O)C2CCN(C(=O)c3ccc([N+](=O)[O-])cc3)CC2)CC1
1%	C=CCSc1nnc2c(n1)OC=Nc1ccccc1-2
19%	Cc1ccc(SCc2nc3ncccn3c2Br)cc1
3%	N/C(=N\OC(=O)c1ccc2c(c1)OCO2)c1cccc(Br)c1
0%	O=C(CCl)Nc1ccc(-c2ccccc2)cc1
-1%	CN(C)c1nc(Nn2cnnc2)nc(N(C)C)n1
6%	O=C(Nc1ccccc1N1CCOCC1)c1ccc2c(c1)OCO2
3%	COc1ccc(OCC(=O)Nc2nccs2)cc1
8%	O=S(=O)(Nc1ccccn1)c1ccc(C2CCCCC2)cc1
8%	O=C(NC(=O)N1CCN(c2ccccc2)CC1)c1ccc(Cl)cc1
-4%	O=C(Nc1c(Cl)ccc2nsnc12)c1ccco1
-2%&2%&-6%&-17%	Cc1ccc(/C(=C\CN2CCCC2)c2ccccn2)cc1
3%	COCCSc1ccccc1C(=O)N1CCCC1
-16%	O=C(NCCc1ccccc1)c1ccccc1Cl
14%	COC(=O)c1nnn(CC(=O)NC(=O)Nc2ccc(F)cc2)c1C(=O)OC
6%	CCn1c(=O)c(C(=O)CC#N)c(N)n(Cc2ccccc2)c1=O
5%	CCOc1ccccc1CNC(=O)C1CCCN(c2ncnc3c2nc2n3CCCCC2)C1 (stereo not given)
-12%	COc1ccc(NC(=O)CS(=O)CC(=O)Nc2ccc(F)cc2F)cc1 (stereo not given)
2%	COC(=O)/C(=C1/Oc2cc(C)oc(=O)c2S1)C(F)(F)F
2%	O=C(NCC1CCN(S(=O)(=O)c2ccccc2)CC1)Nc1ccccc1
-10%	Cc1cc(C)cc(NC(=O)NCC(O)COc2ccc([N+](=O)[O-])cc2)c1 (stereo not given)
-5%	Cc1ccc(-c2csc(=S)n2CC(=O)OCC(=O)NC(C)C(C)C)cc1 (stereo not given)
-3%	O=C1CCSc2cccc3cccc(c23)N1

The last 7 records of the section before come first, to join the parts.
N370S GC	canonical_smiles
5%	CCOc1ccccc1CNC(=O)C1CCCN(c2ncnc3c2nc2n3CCCCC2)C1 (stereo not given)
-12%	COc1ccc(NC(=O)CS(=O)CC(=O)Nc2ccc(F)cc2F)cc1 (stereo not given)
2%	COC(=O)/C(=C1/Oc2cc(C)oc(=O)c2S1)C(F)(F)F
2%	O=C(NCC1CCN(S(=O)(=O)c2ccccc2)CC1)Nc1ccccc1
-10%	Cc1cc(C)cc(NC(=O)NCC(O)COc2ccc([N+](=O)[O-])cc2)c1 (stereo not given)
-5%	Cc1ccc(-c2csc(=S)n2CC(=O)OCC(=O)NC(C)C(C)C)cc1 (stereo not given)
-3%	O=C1CCSc2cccc3cccc(c23)N1
1%	CC1(C)CC(=O)C(C(c2ccco2)C2C(=O)CC(C)(C)CC2=O)C(=O)C1
-6%	c1ccc(N2CCN(c3cnccn3)CC2)nc1
5%	CS(=O)(=O)N(CC(=O)NC1CCCC1)c1cccc(F)c1
-12%	O=C(Cn1nc(C(=O)O)c2ccccc2c1=O)NCCC1=CCCCC1
1%	COC(=O)c1sc(NC(=O)CSc2nnnn2-c2ccc(C)cc2C)nc1C
-2%	COc1cc2c(cc1OC)CN(C(=S)NC(=O)c1ccccc1)CC2
-2%	Cn1nc(CC(=O)Nc2ccc(N3CCN(C(=O)OC(C)(C)C)CC3)cc2)c2ccccc2c1=O
-3%	CCOc1cccc(C(=O)N(Cc2cccc(F)c2)C2CCS(=O)(=O)C2)c1 (stereo not given)
2%	COc1ccccc1-n1nnnc1SCC(=O)N1CCCC1=O
-5%	O=C1/C(=C/c2cccs2)SC(=S)N1CC(=O)N1CCCCC1CCO (stereo not given)
12%	CSc1ccccc1NC(=O)Cn1c(-c2cscn2)nc2ccccc21
-17%	Cc1cc(/C=C2/NC(=S)NC2=O)c(C)n1-c1cccnc1
2%	Cc1nc(NCCc2ccc(S(N)(=O)=O)cc2)c2c3c(sc2n1)CCC3
2%	Cn1c(=NC(=O)CSCC(=O)N2CCCCC2)sc2ccccc21
3%	COc1ccc2oc(=O)c(NC(=O)C3CCCCC3)cc2c1
4%	CN(C)c1ccc(N2C(=O)CSC2=S)cc1

Some of the compounds tested, and most or all hits are left out here.
